# TRPML1 blocker: blocks the human TRPML1 channel; TRPML1-inducible cells, Ca2+ dye fluorescence, FDSS; active compounds read low; inhibition of EC80 agonist-evoked calcium signal; activity change, negative = inhibition, % (no concentration beside the values); 0.02% of 390,000 active; AID 624415; in the data active means activity change below about -50%; inconclusive means about -30% to -50%; inactive means above about -30%;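 also: stimulus is agonist 54-4 at its EC80 concentration; % is scaled to controls: 0 for no effect and ±100 for the full control effect; compound concentration not given in the record; the text of the record puts the active cut at -80%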
#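 Tet-induced TRPML1-DL cells loaded with Ca8 no-wash calcium dye were read kinetically on FDSS. Compound addition was followed by EC80 agonist 54-4 (4 uM final); inhibition was read over 110 s.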
# Six1-Eya2 inh: inhibitors of human Six1/Eya2 interaction. Q15475+O00167. AlphaScreen GST-Six1/His-Eya2 binding, biochemical; active compounds read low; control for the full effect not named in the record. activity change, % (no concentration beside the values). 0.56% of 360,000 active; in the data active = activity change below about -65%; inconclusive = about -30% to -65%; inactive = above about -30%; also: % is scaled to controls: 0 for no effect and ±100 for the full control effect
# Target sequence (O00167 whole entry, looked up): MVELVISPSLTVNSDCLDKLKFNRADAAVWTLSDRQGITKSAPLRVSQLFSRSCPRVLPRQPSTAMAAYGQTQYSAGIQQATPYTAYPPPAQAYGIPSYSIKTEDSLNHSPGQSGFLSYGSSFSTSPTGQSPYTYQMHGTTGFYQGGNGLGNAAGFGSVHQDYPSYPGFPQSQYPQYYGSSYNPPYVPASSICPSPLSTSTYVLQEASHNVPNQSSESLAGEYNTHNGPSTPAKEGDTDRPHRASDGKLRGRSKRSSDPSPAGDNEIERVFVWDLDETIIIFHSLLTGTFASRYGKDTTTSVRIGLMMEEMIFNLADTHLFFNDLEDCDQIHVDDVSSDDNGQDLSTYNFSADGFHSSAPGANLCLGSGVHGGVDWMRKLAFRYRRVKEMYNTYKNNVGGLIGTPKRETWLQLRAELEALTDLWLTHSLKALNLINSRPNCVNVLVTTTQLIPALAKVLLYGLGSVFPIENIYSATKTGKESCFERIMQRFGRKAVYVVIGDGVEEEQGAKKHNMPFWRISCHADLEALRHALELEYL
# Target sequence (Q15475 whole entry, looked up): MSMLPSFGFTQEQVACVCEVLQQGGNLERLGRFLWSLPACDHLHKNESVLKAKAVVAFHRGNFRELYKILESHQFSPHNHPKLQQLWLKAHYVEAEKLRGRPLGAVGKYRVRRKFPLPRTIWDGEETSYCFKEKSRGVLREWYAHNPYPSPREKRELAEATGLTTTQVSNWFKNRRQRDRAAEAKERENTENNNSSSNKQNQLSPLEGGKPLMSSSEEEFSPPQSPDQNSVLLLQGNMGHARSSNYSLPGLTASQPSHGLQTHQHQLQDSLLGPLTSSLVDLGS
#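 Six1/Eya2 binding was read as AlphaScreen signal after compounds were pinned into GST-Six1 plus His-tagged Eya2 (5X stock 250/500 nM) in pH 8.0 Tris/NaCl/TCEP buffer, beads added, then incubated 1 h, 37 C, dark.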
# D2 ag: human D2 receptor agonism in beta-arrestin assay; activation, % (test concentration not listed); DiscoveRx PathHunter D2 beta-arrestin, luminescence, 90 min; 100% = 57 uM dopamine signal; AID 624465; 0.084% of 360,000 active; in the data active = activation above about 40%; inconclusive = about 15% to 40%; inactive = below about 15%; also: compound concentration not given in the record; the text of the record calls up to 30% inactive
#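 Agonist mode: compounds alone added to overnight-plated D2 PathHunter cells for 90 min at 37 C, with 57 uM final dopamine (EC100) defining full response. Beta-arrestin recruitment detected by chemiluminescent reagent, read after 1 h at ambient temperature.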
# TRPML1 agonist: human mucolipin-1 channel agonism; activation, % (no concentration beside the values); 0.12% of 410,000 active; TRPML1-expressing cells, Ca2+ dye fluorescence, FDSS; host cell line not named in the record; reference of the full effect not given here; AID 624414; in the data active = activation above about 50%; inconclusive = about 30% to 50%; inactive = below about 30%; also: 0% is about no effect; the text of the record puts the active cut at 80%
#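 Agonist activity was taken from a 110 s kinetic Ca2+ dye read on the FDSS after pinning compounds onto TRPML1-DL cells. The cells were seeded at 1,500/well with Tet inducer, incubated about 16 h, then dye-loaded at room temperature.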
# PINK1 expr mod: changes PINK1 expression; 0.2% of 410,000 active; Potency, µM (doses to about 76.6 µM), inactives show top-dose activation (PINK1 increase), actives largely listed as activators; AID 624263; PINK1 immunofluorescence, high-content cytometry, 24 h; active = well fitted activation curve with a large enough effect; inconclusive = small, poorly fitted or top-dose-only effect; inactive = flat fitted curve, though single readings scatter; cell line not stated here;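 also: potency is read from the fitted curve at half-maximal effect; % of control where 0% means no effect; nearly all actives have a fitted effect of over 65% in size; a mitochondrial uncoupler was the plate control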
#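 Cells are seeded, rested 12 hours, then given compound at five concentrations or DMSO for 24 hours. After fixation, blocking and antibody staining, PINK1 amount and mitochondrial localization are scored; CCCP serves as control.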
# CtBP-E1A inh: CtBP/E1A binding inhibition; AlphaScreen GST-E1A/His-CtBP binding, 1536-well; active compounds read low; control for the full effect not named in the record; activity change, % (no concentration beside the values); 0.49% of 340,000 active; AID 651724; in the data active means activity change below about -65%; inconclusive means about -30% to -65%; inactive means above about -30%; also: % is scaled to controls: 0 for no effect and ±100 for the full control effect
#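 In 5 uL wells, 23 nL compound meets equimolar GST-E1A and His-CtBP (5X stock 125 nM each) for 2 h, 37 °C. Beads (5X, 50 ug/mL) then 1 h, 37 °C, dark.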
# * = called active by the depositor; ? = inconclusive; · = no result given; [ ] = remark or other dose. Rows are unselected; any-hit rate near 1%.
# Each structure is followed by: PINK1 expr mod	D2 ag	Six1-Eya2 inh	CtBP-E1A inh	TRPML1 agonist	TRPML1 blocker
> CC(NC(=O)c1ccc2c(c1)sc1nc(-c3ccccc3)cn12)C12CC3CC(CC(C3)C1)C2 (stereo not given)
 : 2.2%	·	·	·	0.4	1
> CCN(Cc1ccccc1)C(=O)Cn1c(=O)n(CC(=O)N2CCCCC2)c(=O)c2sccc21
 : 0.7%	0.7	1	5	0.9	-7
> Cc1cc(O)c(/C=N/Nc2ccccc2)c(=O)o1
 : 1.0%	-7.7	-1	10	-0.5	48
> CCOc1cc(S(=O)(=O)NCc2ccccc2)c(OCC)cc1-n1cnnn1
 : -0.2%[38.3 µM]	-2.1	2	12	0.3	13
> O=C(NNC(=O)c1ccccc1O)c1cc2ccccc2o1
 : -2.7%	-1.6	-4	-3	0.9	8
> CCc1nn(C(C)C(=O)Nc2cccc(C)c2C)c(=O)c2cc3occc3n12 (stereo not given)
 : 1.4%	-0.5	-1	1	-0.9	-8
> Cc1ccc(CNC(=O)COc2ccc(S(=O)(=O)N3CCOCC3)cc2)cc1
 : 9.8%	-3.3	3	2	-0.3	-7
> O=C(CCc1nc2ccccc2c(=O)[nH]1)NCCN1C(=O)S/C(=C\c2ccc(OC(F)F)cc2)C1=O
 : 9.4%	-5.4	2	1	1.7	69
> CCSc1nnc(NC(=O)CN(C)S(=O)(=O)c2ccc(F)cc2)s1
 : ·	-3.6	3	2	1.1	2
> COC(=O)C1=C(C)N(C2CCCC2)C(=O)C1(NC(C)=O)C(F)(F)F (stereo not given)
 : -0.3%	2.6	14	4	-0.2	-12
> NC(=O)[C@@H]1CCCN1C(=O)c1cc(COc2ccc3c(c2)CCCC3)on1
 : -1.0%	2.8	-2	-12	1.2	0
> CN(n1cnc2ccccc2c1=O)S(C)(=O)=O
 : -0.2%	-1.0	5	5	1.7	-17
> Cc1c(C(=O)NCc2cccc([N+](=O)[O-])c2)sc(=O)n1Cc1cccc(F)c1
 : 1.5%	2.6	-12	-2	0.5	·
> CC(=O)N1CCc2cc(S(=O)(=O)NC(Cc3ccccc3)C(=O)Nc3cccc(C)c3)ccc21 (stereo not given)
 : -0.5%	·	·	·	1.3	-29
> COc1ccccc1C(=O)Nc1ccc(-c2nnn(CC(=O)N3CCOCC3)n2)cc1
 : 2.6%	6.5	-6	-12	0.5	8

# Compounds from the list above containing a halogen, in the order listed:
# Each structure is followed by: PINK1 expr mod	D2 ag	Six1-Eya2 inh	CtBP-E1A inh	TRPML1 agonist	TRPML1 blocker
> O=C(CCc1nc2ccccc2c(=O)[nH]1)NCCN1C(=O)S/C(=C\c2ccc(OC(F)F)cc2)C1=O
 : 9.4%	-5.4	2	1	1.7	69
> CCSc1nnc(NC(=O)CN(C)S(=O)(=O)c2ccc(F)cc2)s1
 : ·	-3.6	3	2	1.1	2
> COC(=O)C1=C(C)N(C2CCCC2)C(=O)C1(NC(C)=O)C(F)(F)F (stereo not given)
 : -0.3%	2.6	14	4	-0.2	-12
> Cc1c(C(=O)NCc2cccc([N+](=O)[O-])c2)sc(=O)n1Cc1cccc(F)c1
 : 1.5%	2.6	-12	-2	0.5	·

# (more compounds)
# Each structure is followed by: PINK1 expr mod	D2 ag	Six1-Eya2 inh	CtBP-E1A inh	TRPML1 agonist	TRPML1 blocker
> COc1ccc(CC(=O)N2CCN(c3ccccc3)CC2)cc1OC
 : 1.2%	2.0	-4	7	-0.9	-1
> Cn1c(=O)n(C)c2cc(S(=O)(=O)N3CCCCC3)ccc21
 : -0.8%	-0.5	5	-2	-0.4	-2
> COc1ccccc1N(CC(=O)NC1CCCCC1)S(=O)(=O)c1cccs1
 : 1.8%	-4.4	5	·	0.1	4
> Cc1cccc(NC2=C(Cl)C(=O)OC2OC(=O)c2ccco2)c1 (stereo not given)
 : 4.8%	-5.8	-7	-4	0.3	-6
> COc1ccc(C(Nc2ccccn2)c2oc(CO)cc(=O)c2O)cc1 (stereo not given)
 : 0.4%	-0.9	-5	15	0.2	10
> Cc1cc(C)c(C)c(S(=O)(=O)Nc2ccccc2C(=O)NCCCN2CCOCC2)c1C
 : -1.2%	-2.5	1	·	-0.3	3
> c1ccc(CCNC2=NCCCS2)cc1
 : 0.4%	-6.3	0	3	-0.1	-6
> CCOC(=O)c1ccc(OCCOc2cccc(C)c2)cc1
 : 2.5%	-2.8	45	79	0.1	-7
> O=c1[nH]c2ccc(NCc3ccccc3F)cc2[nH]1
 : 0.2%	·	·	·	-0.2	-8
> COC(=O)c1ccc(-n2nnnc2SCC(=O)Nc2ccccc2C(=O)OC)cc1
 : 7.9%	-3.3	4	-4	-0.6	-7
> N#Cc1c(N2CCN(C(=O)c3ccccc3Cl)CC2)nc(-c2ccccc2)c2c1CCCC2
 : -1.8%	-6.1	25	0	1.5	87
> O=C(O)/C=C/c1cn(Cc2ccccc2Cl)nc1-c1ccccc1
 : 1.3%	-5.1	-1	5	·	·
> CC1(NC(=O)COc2ccccc2-c2ccccc2)CCS(=O)(=O)C1 (stereo not given)
 : -3.0%	-0.5	3	-3	0.4	3
> CCCc1cc(C(=O)Nc2cc(C)on2)no1
 : 0.8%	-3.5	3	1	0.2	-5
> CCc1ccc(C2CC(=O)N3CN(c4ccccc4)CSC3=C2C#N)cc1 (stereo not given)
 : 0.6%	-5.5	0	2	0.1	19
> CC(=O)NCCc1ccc(S(=O)(=O)N(C)C2CCS(=O)(=O)C2)cc1 (stereo not given)
 : -2.6%[38.3 µM]	-0.4	3	5	-0.8	-5
> Cc1noc(C)c1COC(=O)c1csc2c1CCC(C)C2 (stereo not given)
 : ?	0.3	18	15	0.2	5
> CCOC(=O)c1c(NC(=O)CSc2nnc(CNc3ccc(F)cc3)o2)sc(C(C)=O)c1C
 : -0.4%	1.1	-12	-13	-0.5	-4
> Nc1nonc1-n1nnc(C(=O)N/N=C/c2c(Cl)cccc2Cl)c1CSC1=NCCS1
 : 0.6%	7.5	-14	?	2.0	-4
> CC(=O)OC1OCCOC1NC(=S)NCc1ccco1 (stereo not given)
 : 3.0%	-3.8	-12	-10	-0.2	11
> COc1ccccc1CNC(=O)c1ccc2c(c1)nc(C)n2-c1cccc(C)c1
 : 1.3%	·	·	·	0.3	-16
> Cc1cc(C(=O)NCC(C)(C)N2CCOCC2)c(C)o1
 : -0.2%	-1.5	5	-9	0.5	1
> CC1=C(c2ccc(C)cc2)S(=O)(=O)NC1=NCc1cccc(F)c1
 : 0.0%	·	·	·	1.0	-9
> COc1ccc(NC(=O)Nc2ccc(C)cc2OC(F)F)cc1OC
 : 3.4%	0.8	-9	-12	0.7	15
> C=C1CCC[C@]2(C)C[C@H]3OC(=O)C(CNCCN(C)C)[C@H]3CC12 (stereo not given in full)
 : 2.5%	-2.3	-3	3	·	·
> Cc1cc(C)c(NC(=O)C(C)(C)C)c(Cl)c1
 : 0.2%	-3.0	-5	4	-1.8	5
> Cn1c2c(c(=O)n(C)c1=O)C(CC(=O)Nc1ccccc1)C(=O)N2 (stereo not given)
 : -1.3%	-3.9	1	5	-0.2	-3
> CC(C)C1=CC(=NS(=O)(=O)c2cccc([N+](=O)[O-])c2)C=C(C(C)C)C1=O
 : 1.0%	10.0	1	0	1.0	?
> COc1ccc(NC(=O)c2cc(-c3cc(C)cc(C)c3O)n[nH]2)cc1Cl
 : ·	8.6	-12	-4	0.3	8
> Cc1ccc(C(CCN)c2ccco2)cc1 (stereo not given)
 : 1.2%	-2.1	-13	3	0.9	9
> Cc1ccccc1N(CC(=O)NCc1ccncc1)S(C)(=O)=O
 : -1.6%[38.3 µM]	0.3	1	11	1.3	-2
> Cc1c(CCCl)c(Cl)n2c(nc3ccccc32)c1C#N
 : 6.0%	1.1	1	4	1.3	-9
> CC(C)(C)NC(=O)C(c1ccncc1)N(C(=O)C1CSC(=O)C1)c1ccccc1 (stereo not given)
 : 0.7%	10	-1	6	1.5	15
> O=c1/c(=C/c2ccccn2)sc2nc3ccccc3n12
 : 15%	-3.8	-2	0	-1.0	-8
> CCCCNC1(C#N)CCN(Cc2ccccc2)CC1
 : 2.1%	-1.1	13	5	0.8	4
> CS(=O)(=O)N(CC(=O)Nc1ccccc1C(=O)NCCc1ccccc1)c1ccc2c(c1)OCCO2
 : -2.5%[38.3 µM]	2.2	-3	-1	-0.1	-7
> CCc1nnc(NC(=O)CCC(=O)NC2CCCCCCC2)s1
 : -0.3%	-3.6	4	·	0.5	19
> COc1ccc(C(=O)COC(=O)C2CCN(S(=O)(=O)c3cccc4cccnc34)CC2)cc1
 : 1.7%	-2.2	-8	0	2.2	10
> O=C(Cc1ccc(-c2ccccc2)cc1)NNC(=S)NCc1ccco1
 : 0.0%	5.2	0	·	0.8	0
> Cc1cccc(NC(=O)/C(C#N)=C/c2cn(CC(=O)NCc3ccco3)c3ccccc23)c1
 : 1.1%	-3.2	-2	2	1.2	-7
> Cc1cc(=O)oc2c(C)c(OCC(=O)N3CCN(c4cccc(Cl)c4)CC3)ccc12
 : 1.7%	0.9	-13	·	1.3	-7
> Cc1csc(NC(=O)Cc2coc3cc(C)c(C(C)C)cc23)n1
 : 2.4%	-0.4	-14	-9	-0.2	-6
> O=C(CSc1nc(C(F)(F)F)cc(=O)[nH]1)N1CCC(Cc2ccccc2)CC1
 : 5.1%	-3.5	-8	-2	-0.2	-7
> Cc1noc(C)c1S(=O)(=O)N(C)C[C@H]1Oc2c(NS(=O)(=O)c3cn(C)cn3)cccc2C(=O)N([C@H](C)CO)C[C@@H]1C
 : -1.0%	-1.5	5	-14	-0.1	-4
> CCCCn1c(N)c(N(CCOC)C(=O)C(C)Oc2ccc(Cl)cc2)c(=O)[nH]c1=O (stereo not given)
 : -3.2%	-3.5	3	9	0.0	7
> COc1ccc(S(=O)(=O)N2CCN(c3cccc(C)c3C)CC2)cc1
 : 4.1%	-2.3	0	9	0.7	-12
> O=C(O)CC(C(=O)Nc1cccc(C(F)(F)F)c1)C1CCCO1 (stereo not given)
 : 0.7%	-4.2	1	3	-0.1	1
> O=C(NCc1ccco1)c1ccc2c(c1)S(=O)(=O)c1ccccc1C2=O
 : 0.1%	10	-13	-4	0.5	-6
> O=C1C[C@H](NC(=O)OCc2ccccc2)CO1
 : 1.8%	-2.7	4	·	0.0	1
> Clc1ccccc1-c1nnc(SCc2nc(-c3ccccc3)no2)n1-c1ccccc1
 : ?	·	·	·	3.8	34
> Cc1cc(=O)[nH]c(SCC(=O)Nc2cccc(C(F)(F)F)c2)n1
 : -1.4%	-2.0	-7	4	0.9	-1
> O=C(Nc1sc2c(c1C(=O)O)CCC2)c1ccccc1Cl
 : -0.4%	-0.7	-22	8	-0.5	-1
> Cc1cc(Cl)ccc1NC(=S)NCCN1CCOCC1
 : -0.4%	-1.2	8	2	-0.1	-4
> COc1ccc(CN2CCc3c([nH]c4ccccc34)C2)cc1Br
 : 16%	-0.8	-2	·	-0.7	-4
> CCNC(=S)NNc1nnc(-c2ccccc2)c(-c2ccccc2)n1
 : -1.5%	-12	3	-25	1.1	3
> CC(C)(Cc1nc2ccccc2[nH]1)C(=O)O
 : 25%[38.3 µM]	-1.5	5	8	1.4	17

# Bioassay records as filed in PubChem.
